High-throughput results from PubChem BioAssay.
miR-21 reporter – miR-21 reporter, rising signal. HeLa miR-21 FLuc reporter, luciferase, 48 h. Potency, µM (series often up to 38.3 µM), for the others: at the top dose reporter change, positive = more light. 340,000 tested, under 10 active. AID 2288; active = well fitted rising curve with a large enough effect; inconclusive = small, poorly fitted or top-dose-only effect; inactive = no such curve, though single readings can be large or run the other way;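 also: % of control where 0% means no effect; miR-21 action dims this reporter so a rising signal means less miR-21 action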
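HeLa miR-21-FLuc reporter line, endogenous miR-21; 2000 cells/well in DMEM/10% FBS; compound titration up to ~40uM final, 48 h, 37 degree Celsius; luciferase detection reagent, 15 min lysis, CCD luminescence.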
The depositor's hits bear a star; ? = inconclusive. A portion of the library; count on the stated rates, not on these rows.

SMILES	miR-21 reporter
CCOCCn1ccc2c(OCC(=O)Nc3cc(C(F)(F)F)ccc3Cl)cccc2c1=O	-3.1%
COc1ccc2c(c1)CC(C(=O)N1CCC(C(N)=O)CC1)CO2 (stereo not drawn)	-0.1%
O=C(CC1N=C2c3ccccc3N=C(SCc3ccc(F)cc3)N2C1=O)NCCc1ccccc1 (stereo not drawn)	10.4%
COc1ccc(/C=C/C(=O)Nc2cccc(F)c2)cc1	0.7%
CCN(CC)c1ccc2cc(-c3nnc(Nc4ccc(C)cc4)s3)c(=O)oc2c1	-8.4%
COc1cccc(CNC(=O)c2ccc(CSc3nc4ccncc4n3Cc3cccc(C)c3)cc2)c1	11.0%
CCc1ccc2c(c1)c(=O)c(C(=O)c1ccccc1)cn2CC(=O)Nc1ccc(C)c(Cl)c1	-6.0%
CCOc1ccccc1NC(=O)c1cn(C2CCCCC2)c(=O)c2c1c1ccccc1n2C	0.2%
Cc1ccc(N(CC(=O)Nc2ccc(OC(F)(F)F)cc2)S(=O)(=O)c2c(C)noc2C)cc1	4.4%
Cc1ccc(-c2nc(C(=O)N3CCN(c4ccccc4)CC3)c3n2CCCCC3)cc1	-1.9%
CC(C)c1nn2c(=O)cc(COC(=O)c3ccccc3NC(=O)C3CCCCC3)nc2s1	1.5%
Cc1ccc2c(CNC3CCCC3)c(C(=O)O)n(Cc3ccc(F)cc3)c2c1	0.3%
O=C(NCCc1nc2ccccc2n1CCCOc1ccc(Cl)cc1)C1CCCCC1	?
COc1ccc(CNCc2c(C(=O)O)n(Cc3ccc(F)cc3)c3cc(C)ccc23)cc1OC	6.5%
COc1ccc(-c2onc(C)c2C)cc1S(=O)(=O)N1CCC(C)CC1	12.2%
CCc1ccc(NC(=O)CN(C)S(=O)(=O)c2ccc3c(c2)c(=O)n(C)c(=O)n3C)cc1	1.1%
Cc1cc(NC(=O)CCc2nc3cccnc3n2Cc2cccs2)ccc1Br	5.4%
CCN(C(=O)C(NS(=O)(=O)c1cccc2nsnc12)c1ccccc1)c1ccccc1 (stereo not drawn)	18.3%
COc1ccc(NC(=O)c2c(NCc3cccc(F)c3)sc3c2CCC3)c(OC)c1	-8.6%
CCCN(Cc1cccs1)C(=O)Nc1cc(Cl)c(OC)cc1OC	3.8%
CCc1ccc(S(=O)(=O)Nc2ccc3[nH]c(=O)sc3c2)cc1	4.7%
CCCC12CN3CC(CCC)(CN(C1)C3c1ccc(OCc3ccccc3)cc1)C2=O (stereo not drawn)	9.4%
CC(=O)Nc1c(C)nn(-c2ccccc2)c1N1CCC(C(=O)NCc2cccc(F)c2)CC1	-8.5%
COc1ccc(OC)c(Nc2nc3ccccc3nc2-n2nc(C)cc2C)c1	5.5%
Cc1ccc(-c2cc(C(F)(F)F)c(C#N)c(SCC(=O)Nc3ccccc3F)n2)cc1	-1.4%

The list continues:
SMILES	miR-21 reporter
COCCNC(=O)CSc1nnc(-c2ccc(OC)c(OC)c2)c(-c2ccc(OC)c(OC)c2)n1	-9.8%
CCc1nn2c(=O)cc(COC(=O)c3ccc(NC(=O)CCc4ccccc4)cc3)nc2s1	1.1%
Cc1ccc(NC(=O)c2c(NC(=O)c3ccc(F)cc3)sc3c2CCCC3)cc1C	-48.0%
CCOC(=O)c1cnn2c(C(F)(F)F)cc(-c3ccc(Br)cc3)nc12	-0.3%
CC(C)n1c(=N)c(C(=O)NCc2ccccc2)cc2c(=O)n3ccccc3nc21	-3.7%
CCOC(=O)c1c(NC(=O)c2ccc(S(=O)(=O)N(CC)CC)cc2)sc2c1CCCCC2	-0.5%
COc1ccc(CCNC(=O)C(=O)NCC(c2ccco2)S(=O)(=O)c2ccc(C)cc2)cc1 (stereo not drawn)	-3.8%
CCOc1ccccc1CNC(=O)Cn1nc(N2CCN(c3ccccc3)CC2)ccc1=O	9.0%
COc1ccc(CC(=O)NCc2ccc3c(c2)CCN3C(=O)c2ccc(Cl)cc2)cc1OC	?
O=C(O)C1CCC(N2C(=O)c3c(Cl)c(Cl)c(Cl)c(Cl)c3C2=O)CC1 (stereo not drawn)	-2.5%
Cc1ccc(-c2cc(NC(=O)C(C)Oc3ccccc3F)on2)cc1 (stereo not drawn)	-26.8%
OC(CN1CCNCC1)Cn1ccc2ccccc21 (stereo not drawn)	-5.3%
O=C(CSc1nc(-c2ccccc2)cn1-c1ccccc1F)Nc1ccc(F)cc1	13.3%
Cc1ccccc1Cn1c(=O)n(CC2CCC(C(=O)N3CCC(C)CC3)CC2)c(=O)c2sccc21 (stereo not drawn)	19.7%
O=C(CC(c1ccccc1)c1cc(Br)ccc1O)NCC1(c2ccccc2)CCCC1 (stereo not drawn)	?
COc1ccccc1C(=O)Nc1ccc2oc(-c3cccc4c(Br)cccc34)nc2c1	-1.6%
CCc1ccc(Nc2nc3c(S(=O)(=O)c4cccc(Cl)c4)nnn3c3ccsc23)cc1	-6.7%
Cc1sc2ncn(CC(=O)N3CCN(c4cccc(Cl)c4)CC3)c(=O)c2c1S(=O)(=O)N1CCN(c2ncccn2)CC1	4.4%
Cc1cc(C)c(-c2n[nH]c3c2C(c2ccccc2F)N(Cc2ccco2)C3=O)c(O)c1 (stereo not drawn)	-2.3%
O=C1COc2cc(S(=O)(=O)CCC(=O)N3CCN(c4ccccc4)CC3)c(Cl)cc2N1	-12.6%
O=S(=O)(c1ccc(Br)cc1)c1nnn2c1nc(Nc1cccc(C(F)(F)F)c1)c1sccc12	-1.0%
COc1cc(NC(=O)CC2C(=O)N(c3ccc(Cl)cc3)C(=O)N2Cc2cccs2)cc(OC)c1 (stereo not drawn)	24.2%
Cc1ccc(Nc2c(-c3ccc(C)cc3)nc3ccc(C)cn23)cc1	-19.3%
CCOc1cc(C(=O)Nc2ccc(-c3nc4cc(Cl)ccc4o3)cc2)cc(OCC)c1OCC	-3.4%
Cc1ccc(C)c(Cn2c(=O)n(Cc3ccc(C(=O)NC4CCN(Cc5ccccc5)CC4)cc3)c(=O)c3ccccc32)c1	0.1%

Next part
SMILES	miR-21 reporter
CCN(CC)S(=O)(=O)c1ccc(C(=O)NC2CC(=O)N(c3ccc(OC)c(OC)c3)C2)cc1 (stereo not drawn)	-1.1%
Cc1ccc(S(=O)(=O)N(Cc2nc(-c3cccc(C)c3)no2)C2CCCCC2)cc1	0.1%
CCN(C(=O)c1nn(-c2ccc(C)cc2)c(=O)c2c1c1ccccc1n2C)c1ccc(F)cc1	-4.1%
CCOc1ccc(NC(=O)CCc2c(C)nc3c(-c4ccccc4)c(C)nn3c2C)cc1	-3.1%
O=C(CN1C(=O)COc2ccc(S(=O)(=O)N3CCOCC3)cc21)NCc1ccc(Cl)cc1	-6.4%
COc1ccccc1NC(=O)Cn1c(=O)n(CCc2ccccc2)c(=O)c2c3c(sc21)CN(C(C)=O)CC3	15.6%
CCc1ccc(S(=O)(=O)c2nnn3c2nc(NCc2ccccc2OC)c2cc(Cl)ccc23)cc1	3.4%
COc1cccc(NC(=O)Cn2cnc3c(nc4n3CCCCC4)c2=O)c1	-1.4%
Cc1ccc(-c2nc3cc(NC(=O)c4cc5ccccc5o4)ccc3o2)cc1Cl	-10.5%
CC(=O)c1ccc(NC(=O)C2Cc3ccccc3N2C(=O)c2ccccc2)cc1 (stereo not drawn)	-17.0%
CCC1CCCCN1C(=O)CSc1n[nH]c(-c2ccccc2)n1 (stereo not drawn)	-26.2%
CCOC(=O)C1CCN(C(=O)CSc2n[nH]c(-c3ccc(OC)cc3)n2)CC1	-1.3%
Cc1cc(OC(=O)c2cc(-c3ccc4c(c3)OCCO4)on2)ccc1Cl	-9.3%
CCOc1ccc(N(CC(=O)Nc2ccccc2CC)S(=O)(=O)c2c(C)[nH]c(=O)[nH]c2=O)cc1	-0.7%
CCc1ccccc1NC(=O)C1=CC(c2ccc3c(c2)OCO3)=NS(=O)(=O)N1C	2.5%
CCCSc1ncc(Cl)c(C(=O)Nc2ccc(OC)cc2OC)n1	0.6%
CCCCSc1nc2sc3c(c2c(=O)n1-c1ccccc1C)CC(C)(C)OC3	-3.2%
CCCn1c2ccccc2c2cnn(CC(=O)NCCCOC(C)C)c(=O)c21	-5.5%
COc1cccc(CNC(=O)C(C)n2ncn3cccc3c2=O)c1OC (stereo not drawn)	?
COc1ccc(C(=O)CSc2nc(C)cc(C)c2C(=O)Nc2ccccc2C)cc1	4.6%
O=C(COCc1cc(-c2cccs2)on1)N1CCN(c2ccc(F)cc2)CC1	3.8%
COc1cc(C(=O)NCCc2sc(-c3ccc(C)cc3)nc2C)cc(OC)c1OC	1.3%
Cc1ccc(CNC(=O)c2cc3sccc3n2Cc2ccc(F)cc2)cc1	0.3%
CSc1nc(Nc2ccc(C)cc2)c(C#N)c(-c2ccccc2)n1	-10.9%
CC(C)Oc1ccc(CNC(=O)C2CCN(C(=O)N3CCOc4ccc(Cl)cc43)CC2)cc1	-7.1%

Other records
SMILES	miR-21 reporter
CC(NC(=O)C1=Cc2ccccc2OC1)c1ccccc1 (stereo not drawn)	3.0%
CCn1c(=O)n(CC)c2cc(N3CCCCC3)c(NC(=O)Nc3cc(Cl)ccc3OC)cc21	23.9%
CCC(C(=O)NCCCN(CC)CC)n1ncn2c(cc3occc32)c1=O (stereo not drawn)	-0.8%
COc1ccc(S(=O)(=O)Nc2cccc(-c3ccc(N4CCC(C)CC4)nn3)c2)cc1OC	15.3%
O=C(Nc1ccc(F)c(Cl)c1)N1CCN2CCCCC2C1 (stereo not drawn)	-14.5%
Cc1oc2ncn(CC(C)C)c(=O)c2c1C(=O)NC(C)c1ccccc1 (stereo not drawn)	23.0%
COc1ccccc1Nc1ncc2c(n1)CCN(Cc1cc(F)cc(F)c1)C2	-0.1%
Cc1nn(-c2ccc(N3CCOCC3)nn2)c(C)c1CCC(=O)NCc1ccc(OC(C)C)cc1	1.1%
CC(C)(C)c1ccc(/C=C/C(=O)Nc2ccc(S(N)(=O)=O)cc2)cc1	?
O=C(Cn1c(-c2cccs2)cc2cc(Cl)ccc21)N1CCN(c2ccccc2)CC1	-5.4%
Cc1oc(-c2ccccc2)nc1CSc1nnc(C)n2c1cc1sccc12	0.4%
COc1ccc(CN(C(=O)c2ccccc2F)C2CCS(=O)(=O)C2)cc1 (stereo not drawn)	-0.8%
COc1cccc(N2CCN(C(=O)c3ccc4c(Cl)c5c(nc4c3)CCCC5)CC2)c1	-2.0%
CC(=O)N1CCc2c(sc3c2c(=O)n(CCc2ccccc2)c(=O)n3Cc2ccc(F)cc2)C1	23.7%
CCN(CC)S(=O)(=O)c1ccc2c(c1)N(CC(=O)Nc1ccc(OC)cc1)C(=O)CS2	1.9%
CC(C)(C)OC(=O)N1CCC(c2c(C(=O)NCc3ccc4c(c3)OCO4)cnn2-c2ccccc2Cl)CC1	12.9%
Cc1ccc(CNc2ccc(-c3nc(C(C)C)no3)cc2[N+](=O)[O-])cc1	-7.4%
CCn1nnc2cc(C(=O)Nc3cc(C)ccc3C)ccc21	7.6%
CCn1cc(C(=O)OCC(=O)Nc2ccc(C)c(Cl)c2)c(=O)c2ccc(C)nc21	-2.0%
COc1ccc(-n2c(=O)c3sc4ccccc4c3n(Cc3ccccc3C)c2=O)cc1OC	3.2%
CN(C)c1ccc(CNC(=O)CN2CCSc3ccc(S(=O)(=O)N(C)C)cc32)cc1	0.0%
CC(C)Oc1ccc(CNC(=O)CCn2c(=O)c3cccn3c3ccc(F)cc32)cc1	-1.5%
Cc1ccc(NC(=O)[C@H]2O[C@@H]3OC(C)(C)O[C@@H]3[C@H]3OC(C)(C)O[C@H]32)cc1F	-2.3%
Cc1cccc(-c2nn3c(=O)cc(CN4CCN(C(=O)/C=C/c5ccccc5)CC4)nc3s2)c1	4.3%
CNS(=O)(=O)c1cc(-c2nnc(Nc3cc(C)ccc3C)c3ccccc23)ccc1C	11.1%

Four compounds from above, ordered by the number in miR-21 reporter, low to high.
SMILES	miR-21 reporter
CCCCSc1nc2sc3c(c2c(=O)n1-c1ccccc1C)CC(C)(C)OC3	-3.2%
O=C(O)C1CCC(N2C(=O)c3c(Cl)c(Cl)c(Cl)c(Cl)c3C2=O)CC1 (stereo not drawn)	-2.5%
COc1ccc2c(c1)CC(C(=O)N1CCC(C(N)=O)CC1)CO2 (stereo not drawn)	-0.1%
COc1ccc(CNCc2c(C(=O)O)n(Cc3ccc(F)cc3)c3cc(C)ccc23)cc1OC	6.5%

Reprinted at random: 2 records from the list, in no set order.
SMILES	miR-21 reporter
Cc1cccc(-c2nn3c(=O)cc(CN4CCN(C(=O)/C=C/c5ccccc5)CC4)nc3s2)c1	4.3%
O=C(Nc1ccc(F)c(Cl)c1)N1CCN2CCCCC2C1 (stereo not drawn)	-14.5%

Next records follow:
SMILES	miR-21 reporter
COc1ccc(-c2cc(C(F)(F)F)nc(SCC(=O)NCC(C)C)n2)cc1OC	-5.4%
Cc1ccc(S(=O)(=O)NCC2CCC(C(=O)NCc3ccc(F)cc3)CC2)cc1 (stereo not drawn)	-10.6%
CC(=O)c1ccc(NC(=O)Cn2c(=O)n(Cc3ccco3)c(=O)c3sc4ccccc4c32)cc1	0.3%
CN(C)c1ncc(C(=O)NCc2ccccc2Cl)cn1	1.3%
Cc1cccc(NC(=O)CN2C(=O)c3cccnc3Oc3ccc(Cl)cc32)c1C	-4.7%
O=C(NCc1cccc(Cl)c1)c1ccc2c(Cl)c3c(nc2c1)CCCC3	-11.3%
COc1ccc(NC(=O)c2ccco2)cc1NC(=O)COc1ccc(Cl)c(C)c1	-15.6%
CCCCNC(=O)CSc1nc2nc(C)c(Cc3c(F)cccc3Cl)c(C)n2n1	-1.1%
Cc1ccc(Nc2nc3ccc(C)cc3nc2-n2nc(C)cc2C)c(C)c1	0.7%
CCC(C)NC(=O)C1CCN(S(=O)(=O)c2ccc3c(ccn3CC)c2)CC1 (stereo not drawn)	1.1%

Compounds shown so far that contain a COOH group, in the order listed:
SMILES	miR-21 reporter
Cc1ccc2c(CNC3CCCC3)c(C(=O)O)n(Cc3ccc(F)cc3)c2c1	0.3%
COc1ccc(CNCc2c(C(=O)O)n(Cc3ccc(F)cc3)c3cc(C)ccc23)cc1OC	6.5%
O=C(O)C1CCC(N2C(=O)c3c(Cl)c(Cl)c(Cl)c(Cl)c3C2=O)CC1 (stereo not drawn)	-2.5%
